NPYLR7 ag = mosquito NPYLR7 agonism. 270,000 tested, 0.15% active. activation, % at 10 µM. HEK293T NPYLR7/Galpha15, GCaMP6s calcium fluorescence; in the data active means activation above about 40%;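 further: 0% = vehicle and 100% = reference agonist at the receptor; some compounds past the cut are filed as inactive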
NPYLR7 ag max-min = second read-out of NPYLR7 ag, no call of its own (marks repeat the call); activation, %; measured here: Max-Min RFU normalised activation; some inactives read as strong as hits;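 span of the calcium signal over five minutes; 0% = vehicle and 100% = native peptide agonist; compound fluorescence can raise it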
Starred values were filed as active, the others as inactive; & = joins results of further samples. This is a subset. The share of hits here may be higher or lower than overall.

SMILES	NPYLR7 ag	NPYLR7 ag max-min
CCn1cc(C(CC(=O)N2CCN(c3cccc(Cl)c3)CC2)c2cc(OC)cc(OC)c2)c2ccccc21 (stereo not drawn)	-11	-6
Cc1cc(-n2cccn2)ccc1CN1CCCC(CNC(=O)c2n[nH]c3ccccc23)C1 (stereo not drawn)	4	1
CC(C)NC(=O)NC(=O)CSc1nnc(-c2ccco2)n1C	3	0
CC(c1cccc(-c2cccc3c(N)ccnc23)c1)N(C)C (stereo not drawn)	2	2
CCCCc1nc(N2CCCN(C(=O)C(CC)c3ccccc3)CC2)c2c(C)nn(-c3ccc(F)cc3)c2n1 (stereo not drawn)	8	7
CC(C)N(Cc1nccn1C)C(=O)C1CCCCO1 (stereo not drawn)	7	1
COc1cccc(C(=O)N(CC(=O)N2CCc3sccc3C2COc2cccc(F)c2)Cc2ccco2)c1 (stereo not drawn)	-2	2
c1ccc(-c2ncn(CCc3cnc[nH]3)c2-c2cccn2-c2ccccn2)cc1	15	35
CC1CCCCC1OCCN(Cc1ccc(C(=O)NC2CC2)cc1)C1CC1 (stereo not drawn)	1	0
Cc1nn(C2CCS(=O)(=O)C2)c2nc(-c3cccs3)cc(C(=O)N3CCCCC3)c12 (stereo not drawn)	1	5
COc1ccccc1C1=NN(C(=O)CN2CCc3ccccc3C2)C(c2ccc(C)cc2)C1 (stereo not drawn)	11	10
Cc1cc(O)c(C(=O)c2cccs2)c(=O)n1C	4	5
O=C(Cn1nc(-c2cccs2)c2sc(N3CCCCC3)nc2c1=O)Nc1ccc2c(c1)OCO2	-1	-6
Cc1ncc2c(c1CNC(=O)c1ccsc1)CCN(C(=O)c1cccc(-c3ccc(F)cc3)c1)C2	23	16
Cc1oc2nc3c(c(=O)n(Cc4ccccc4)c(=O)n3C)n2c1C	0	10
O=C(c1[nH]cnc1-c1ccccc1)N1CCCC(N2CCCC2=O)C1 (stereo not drawn)	-1	-3
OC[C@H]1CCCCN1Cc1nc(-c2cc(Br)cs2)no1	3	1
Cc1ccc(Br)cc1NC(=O)c1ccc2[nH]c(=O)c(=O)[nH]c2c1	1	18
CNC(=O)[C@@H]1C[C@@H](N)CN1C(=O)c1cc(F)c(OC)c(F)c1	2	2
N#Cc1ccc(S(=O)(=O)CCOc2ccccn2)cc1	-1	-1
Cc1nc(-c2ccc(Cl)s2)sc1C(=O)NC(C)(C)C	1	0
Cc1ccc(NS(=O)(=O)c2c[nH]c(=O)[nH]c2=O)cc1	-12	-18
Cn1c(=S)[nH]c2c(c1=O)C1(CCCC1)Cc1ccccc1-2	-3	29
O=C1/C(=C/c2ccc(-c3ccc(Cl)c(Cl)c3)o2)C=C(c2ccccc2)N1c1ccc(O)cc1	1	7
CCN(CC)C(=O)C1CSCN1C(=O)COc1ccc(C(C)C)cc1 (stereo not drawn)	-3	-2
CSc1ncccc1C(=O)N1Cc2cnc(CC(C)C)nc2C1	-1	-1
CC(=O)n1c(O)c(N=NC(=O)c2ccco2)c2ccccc21	0	0
CCn1cc(C(=O)N2CCN(CC(=O)NCC3CCCO3)CC2)c2nn(-c3ccccc3)c(=O)c-2c1 (stereo not drawn)	-2	-6
CNc1ccnc(N2CCC(C(O)c3cccnc3)CC2)n1 (stereo not drawn)	0	21
Cc1ccc(S(=O)(=O)N2CCN(c3ccc(Oc4ccccc4)cc3)C(=O)C2C)cc1 (stereo not drawn)	-14	-10
COc1ccccc1-c1nc(C(N)=O)c2[nH]c(=O)n(-c3ccc(C(C)(C)C)cc3)c2n1	-11	-13
O=S(=O)(c1ccc2c(c1)OCCO2)N1CCCSc2ccccc21	0	6
Cc1cc(C)cc(-n2ccnc2SC2CCCCC2=O)c1 (stereo not drawn)	-5	-5
COCCCN(Cc1cccc(F)c1)Cc1cccn1Cc1ccccc1C	21	25
Cc1cccc(-c2ncc(CN(C)Cc3ncc[nH]3)cn2)c1	-1	-4
O=C(O)c1c[nH]c2c(Cl)c(Cl)ccc2c1=O	5	3
Cc1cc(C(=O)N2CCc3ccccc3C2c2ccccc2Cl)co1 (stereo not drawn)	-4	2
CC(C)CN1CC(C(=O)NCCc2nc3c(s2)CCC3)CC1=O (stereo not drawn)	10	1
Cc1onc(-c2c(F)cccc2Cl)c1C(=O)Nc1ccccc1Cl	6	6
CC(C(=O)Nc1nccs1)N1CCOC(c2ccc(Cl)cc2)C1 (stereo not drawn)	0	0
Cc1c(CN2CCN(Cc3ccsc3)C(CCO)C2)[nH]c2c(Cl)cccc12 (stereo not drawn)	2	-5
Cc1ccc(C(=O)NCC2CCCO2)c(C2CCN(Cc3cc(C)c(C)o3)CC2)n1 (stereo not drawn)	6	5
C=CCN(CC=C)C(=O)CN1CCN[C@H]2CS(=O)(=O)C[C@H]21	-4	-6
CC(c1ccon1)N(C)C(=O)c1cn(C/C=C/c2ccccc2)nn1 (stereo not drawn)	7	0
COc1ccc(CN(Cc2ccco2)C(=O)CCCOc2ccc(Cl)cc2C)c2ccccc12	-4	-11
NCCC1CCCN(Cc2cccn2S(=O)(=O)c2ccccc2)C1 (stereo not drawn)	3	4
Cc1nc2cccc(C)n2c(=O)c1NC(=O)C1CC1	3	1
Cc1nc(S(=O)(=O)N2CCC3(CC2)C(=O)Nc2ccccc23)cn1C	12	8
CS(=O)(=O)CCC(=O)N1CC2CCCCC21c1ccccc1 (stereo not drawn)	0	-2
Cn1c(C2CCC2)nc2cc(C(=O)NC3Cc4ccccc4C3)cc(NC(=O)C3CCCO3)c21 (stereo not drawn)	18	5
CCCCn1c(=O)c2c(nc3n(CC(=O)OCC)c(C)c(C)n23)n(C)c1=O	-7	-8
COC(=O)N1CCCC(NC(=O)Nc2ccn(-c3ccccc3)n2)C1 (stereo not drawn)	-1	-4
Cc1cccnc1CC(C)Nc1ccc(-c2nccn2C)nn1 (stereo not drawn)	2	2
COc1cccc(CNC(=O)CCC2CCCN(C(=O)c3cc4ccccc4o3)C2)c1 (stereo not drawn)	3	4
Cc1nc2sc3c(c2c(=O)o1)CCC3	0	7
CCNC(=O)c1coc(CN(Cc2ccccc2)Cc2ccc(C(F)(F)F)cc2)n1	22	18
CCOCCOc1nc(-c2ccc3c(c2)OCO3)n(-c2ccc(NC(=O)COc3ccc(Cl)cc3)cc2)n1	17	13
CCN(Cc1noc(CC(C)C)n1)C(=O)C1CCCO1 (stereo not drawn)	2	1
CCOc1ccc(-c2cc(C(=O)NCc3cccc(OC(F)(F)F)c3)c3ccccc3n2)cc1	-1	12
O=C(CC1(O)C(=O)Nc2ccc(Br)cc21)c1ccncc1 (stereo not drawn)	4	3
Other entries
SMILES	NPYLR7 ag	NPYLR7 ag max-min
CCC(NC(=O)C(=O)c1cccnc1)c1nc(C)c(C)s1 (stereo not drawn)	-5	-8
CCCc1c(C(=O)NCc2ccco2)cnn1-c1ccccc1	-4	2
COc1ccc(CN2CCCn3cccc3C2c2cc(F)ccc2F)c(OC)c1OC (stereo not drawn)	1	9
Cc1nccc(-c2ccccc2)c1C(=O)N[C@@H]1CC[C@@H](N)C1	-1	1
Clc1ccc(-c2cnnc(N3CCC(c4ccncc4)CC3)n2)cc1	3&-3	6&-3
COC(=O)C1CCCN1C(=O)c1cc(-c2ccccc2)cs1 (stereo not drawn)	-2	-3
COc1ccc(CCN(C)c2cc(C(C)(C)C)nc(SCc3cccc(C(=O)NCCN4CCOCC4)c3)n2)cc1OC	-5	-4
C=CCONC(=O)c1cccc2[nH]c(-c3ccc(N(C)C)cc3)nc12	-1	18
COc1ccc(C(=O)N2C(C(=O)NCC3CCCO3)COC23CCN(C(=O)c2cccc(Cl)c2)CC3)cc1 (stereo not drawn)	5	19
O=[N+]([O-])c1cc(S(=O)(=O)N2CCOCC2)ccc1Nc1ccc(Br)cc1	10	14
FC(F)(F)C1CNCC1C(F)(F)F (stereo not drawn)	1	12
COc1cccc(N2CCN(c3cc(Oc4ccc(Cl)cc4)ncn3)CC2)c1	-8	2
COc1ccc(NC(=O)/C=C/c2ccc(OC(F)F)c(OC)c2)c(OC)c1	3	-1
Cc1ccc(-c2cc(NC(=O)CCCOc3ccccc3)n(-c3ccccc3)n2)cc1	6	2
CN(Cc1nc2ccccc2[nH]1)S(=O)(=O)C1=CCCCC1	2	2
CCN1CCN(C(=O)CCN(C(=O)c2cc(C)oc2C)C2CC2)CC1	4	3
Clc1ccc(/C=C2\CCCC3C2=Nc2ncnn2C3c2ccc(Cl)cc2)cc1 (stereo not drawn)	3	3
CCCn1c(N)c(C(=O)CSc2nnc(C3CC3)n2C2CC2)c(=O)[nH]c1=O	11	12
CCc1noc(C)c1C(=O)NC(C)C1CC1c1ccccc1 (stereo not drawn)	0	0
Cc1c(C(=O)NCCc2ccc(F)cc2)cnc2c(-c3ccc4c(c3)OCO4)cnn12	6	-5
O=C(CC1CSc2nc3c(c(=O)n21)CCCC3)NCc1cccnc1 (stereo not drawn)	0	-1
Fc1cccc(Cl)c1CSCc1nc2ccccc2[nH]1	9	5
Cc1c(C(=O)NC2CCc3ccccc32)cnc2c(-c3c(F)cccc3Cl)cnn12 (stereo not drawn)	4	-8
N#Cc1c(NC(=O)CC2CCCC2)sc2c1CCCCC2	0	-3
CC1(C)Cc2cccc(OCC(O)CN3CCN(c4ccccn4)CC3)c2O1 (stereo not drawn)	0	-2
CCCN(Cc1cccn1Cc1cccc(Cl)c1)C(=O)/C=C/c1ccc([N+](=O)[O-])cc1	-5	-2
Cc1ccc(OCc2ccc(C(=O)NN3CC(=O)NC3=O)o2)c(C)c1	6	7
COc1ccc(SCC(=O)N/N=C/c2cccn2-c2ccc(Cl)cc2)cc1	3	3
Nc1nonc1-c1noc(-c2ccc(F)cc2)n1	0	-1
O=C1O[C@H](COC(=O)c2ccccc2)[C@@H](OC(=O)c2ccccc2)C=C1OC(=O)c1ccccc1	2	0
CCN(CCN1C(=O)CSC1c1cccc(F)c1)C(=O)CC(C)C (stereo not drawn)	6	16
O=c1[nH]c(-c2ccccc2)c(-c2ccccc2)o1	1	-2
COc1cccc(CN2CCCC3(CCN(c4cnccn4)C3)C2=O)c1OC (stereo not drawn)	5	4
COc1ccc(CN(C2CCCCC2)C2CC2)c(Br)c1OC	7	5
Cc1ccccc1C1c2ccsc2CCN1C(=O)CN(C(=O)Cc1ccc(F)cc1)C1CCCCC1 (stereo not drawn)	11	16
Cc1cc(F)ccc1Oc1cc(N(CCN(C)C)Cc2ccccc2)ncn1	0	1
NCC(=O)CCC(=O)O	7&-12&-6	4&-17&-11
CN(CC1CCCO1)C(=O)NC1CCN(CC2CCCCC2)CC1 (stereo not drawn)	1	-1
Cc1cc(S(=O)(=O)Nc2ccccc2C(=O)NC(C)C)sc1C(=O)O	8	5
Cc1cc(SCC(=O)Nc2ccccc2C)n2nc(C)c(-c3ccccc3)c2n1	4	-2

Part of the list above, with two lines to a compound.
Every second line gives: NPYLR7 ag | NPYLR7 ag max-min
> N#Cc1c(NC(=O)CC2CCCC2)sc2c1CCCCC2
 : 0 | -3
> CC1(C)Cc2cccc(OCC(O)CN3CCN(c4ccccn4)CC3)c2O1 (stereo not drawn)
 : 0 | -2
> CCCN(Cc1cccn1Cc1cccc(Cl)c1)C(=O)/C=C/c1ccc([N+](=O)[O-])cc1
 : -5 | -2
> Cc1ccc(OCc2ccc(C(=O)NN3CC(=O)NC3=O)o2)c(C)c1
 : 6 | 7
> COc1ccc(SCC(=O)N/N=C/c2cccn2-c2ccc(Cl)cc2)cc1
 : 3 | 3
> Nc1nonc1-c1noc(-c2ccc(F)cc2)n1
 : 0 | -1
> O=C1O[C@H](COC(=O)c2ccccc2)[C@@H](OC(=O)c2ccccc2)C=C1OC(=O)c1ccccc1
 : 2 | 0
> CCN(CCN1C(=O)CSC1c1cccc(F)c1)C(=O)CC(C)C (stereo not drawn)
 : 6 | 16
> O=c1[nH]c(-c2ccccc2)c(-c2ccccc2)o1
 : 1 | -2
> COc1cccc(CN2CCCC3(CCN(c4cnccn4)C3)C2=O)c1OC (stereo not drawn)
 : 5 | 4
> COc1ccc(CN(C2CCCCC2)C2CC2)c(Br)c1OC
 : 7 | 5
> Cc1ccccc1C1c2ccsc2CCN1C(=O)CN(C(=O)Cc1ccc(F)cc1)C1CCCCC1 (stereo not drawn)
 : 11 | 16
> Cc1cc(F)ccc1Oc1cc(N(CCN(C)C)Cc2ccccc2)ncn1
 : 0 | 1
> NCC(=O)CCC(=O)O
 : 7&-12&-6 | 4&-17&-11
> CN(CC1CCCO1)C(=O)NC1CCN(CC2CCCCC2)CC1 (stereo not drawn)
 : 1 | -1
> Cc1cc(S(=O)(=O)Nc2ccccc2C(=O)NC(C)C)sc1C(=O)O
 : 8 | 5
> Cc1cc(SCC(=O)Nc2ccccc2C)n2nc(C)c(-c3ccccc3)c2n1
 : 4 | -2

Next part.
SMILES	NPYLR7 ag	NPYLR7 ag max-min
COCc1c(Br)c(C)nc(OCC(=O)N/N=C\c2ccccc2)c1C#N	-11	-15
CC(C)N(Cc1cccs1)C(=O)Nc1ccc(F)cc1	2	4
C=CCn1c(NCCc2ccccc2)nc2c1c(=O)n(C)c(=O)n2C	0	-1
COc1ccc(C(=O)N2CCN(Cc3cnc(SC)nc3)CC2)cc1	12	8
Cc1ncsc1CCN(C)Cc1ccc(CO)o1	4	2
CC[C@@]1(CO)N[C@H](c2ccc(C)c(F)c2)[C@@H]2CN(c3ccccc3)C[C@@H]21	1	-2
CCOc1ccc(-n2nnnc2CNS(=O)(=O)c2ccccc2)cc1	-3	-4
O=C(CSc1nc(=O)n(CC2CCCO2)c2c1CCCC2)NCc1ccccc1 (stereo not drawn)	-8	-13
Nc1ccc(S(=O)(=O)C(F)(F)F)cc1NC(=O)COc1ccc(Cl)cc1	3	0
COc1ccc(-n2ncc(Oc3ccc4c(c3)CCC4)c(Nc3ccc(C(=O)N4CCN(C)CC4)cc3)c2=O)cc1	11	7
O=C(NC1CCCCC1)N1CCCC(CNS(=O)(=O)Cc2ccccc2)C1 (stereo not drawn)	9&14	3&3
C=CCc1c(C)nc(SCC(N)=O)[nH]c1=O	17	10
COc1ccc(-c2csc(-n3[nH]c(C)c(N=Nc4ccccc4Br)c3=O)n2)cc1	-2	-9
O=C(Nc1nnsc1Cl)c1ccccc1	3	5
Nc1cc(-c2cccc(Cl)c2)nn1-c1ccc(C(=O)NCCNc2ccc([N+](=O)[O-])cn2)cc1	8	1

Source: PubChem (Fisher Drug Discovery Resource Center)
